High-throughput results from PubChem BioAssay.
YjeE inh – inhibitors of E. coli YjeE (TsaE); P0AF67; purified YjeE, fluorescence polarisation of a bound ADP probe; Potency, µM; 71,000 tested, 0.05% active; AID 605; active = well fitted falling curve; inconclusive = weaker or top-dose-only fall, or a rising curve; inactive = flat or poorly fitted curve;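 also: top concentration of the series not given in the record; excess ADP was the control for the full effect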
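Purified YjeE (10 uM) with BODIPY Texas Red-labeled ADP probe (2 uM); compounds pin-transferred, 15 min at room temperature. Binding inhibition read as decreased fluorescence polarization; ADP titration as control.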
PK Bst – modulators of Bacillus stearothermophilus pyruvate kinase; 51,000 tested, 1.2% active; partly purified Bacillus stearothermophilus pyruvate kinase, luminescence ATP production; ribose 5-phosphate activator present at AC10; Potency, µM; in the data active means potency below about 11 µM; inconclusive means mostly about 12 µM to 25 µM; inactive means weaker than that;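 the screen sought inhibitors and activators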;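 also: potency is read from the fitted curve at half-maximal effect; scaled between full activation by ribose 5 phosphate and full inhibition by luteolin; about four in five hits inhibit and the cells do not say which; series up to 57 µM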
Starred values were filed as active, the others as inactive. Some of the compounds tested; count on the stated rates, not on these rows.

What do the screens show for `COc1ccccc1NC(=O)N1CCN(c2cc(-c3ccccc3)nc3ncnn23)CC1`?
YjeE inh: inactive; PK Bst: >11

How did COc1ccc(CNC(=O)c2cc3c(C)nc4ccccc4c3o2)c(OC)c1 do in these assays?
YjeE inh: inactive

Results for CNc1ccnc(-c2c(C)noc2C)n1 ?
YjeE inh: inactive

Results for Cc1cc(Nc2nnnn2-c2ccccc2)n(-c2ccc(Cl)cc2)n1 ?
YjeE inh: inactive; PK Bst: >57

How did COc1ccc(NC(=O)N2CCCC3(CCN(C(C)=O)CC3)C2)cc1 do in these assays?
YjeE inh: inactive

How did O=C(CCCn1c(=O)[nH]c2ccsc2c1=O)NCc1cccs1 do in these assays?
YjeE inh: inactive; PK Bst: >57

How did COc1ccc(CCNC(=O)Cn2nnc(-c3cccc(OC)c3OC)n2)cc1OC do in these assays?
YjeE inh: inactive; PK Bst: >57

What do the screens show for `CCNc1nc(Oc2ccc(C(=O)OCC)cc2)nc(SC)n1`?
YjeE inh: inactive

What do the screens show for `O=C(Nc1cccc2ccccc12)N1CCOCC1`?
YjeE inh: inactive

How did CC1=C(C(=O)Nc2cc(C)ccn2)C(c2ccc(C)cc2)C2=C(CCCC2=O)N1 (stereo not given) do in these assays?
YjeE inh: inactive; PK Bst: >57

In the list so far, 7 contain a carbonyl joined to an NH by a bond outside any ring:
What do the screens show for `COc1ccccc1NC(=O)N1CCN(c2cc(-c3ccccc3)nc3ncnn23)CC1`?
YjeE inh: inactive; PK Bst: >11

How did COc1ccc(CNC(=O)c2cc3c(C)nc4ccccc4c3o2)c(OC)c1 do in these assays?
YjeE inh: inactive

How did COc1ccc(NC(=O)N2CCCC3(CCN(C(C)=O)CC3)C2)cc1 do in these assays?
YjeE inh: inactive

How did O=C(CCCn1c(=O)[nH]c2ccsc2c1=O)NCc1cccs1 do in these assays?
YjeE inh: inactive; PK Bst: >57

How did COc1ccc(CCNC(=O)Cn2nnc(-c3cccc(OC)c3OC)n2)cc1OC do in these assays?
YjeE inh: inactive; PK Bst: >57

What do the screens show for `O=C(Nc1cccc2ccccc12)N1CCOCC1`?
YjeE inh: inactive

How did CC1=C(C(=O)Nc2cc(C)ccn2)C(c2ccc(C)cc2)C2=C(CCCC2=O)N1 (stereo not given) do in these assays?
YjeE inh: inactive; PK Bst: >57

(further entries)
How did CCCNc1nc2c(c(=O)n(C)c(=O)n2C)n1CCC(C)C do in these assays?
YjeE inh: inactive; PK Bst: >57

How did CC(=O)N1CCC(O)(c2cccc(C(F)(F)F)c2)CC1 do in these assays?
YjeE inh: inactive; PK Bst: >57

What do the screens show for `COc1ccc(S(=O)(=O)N2CCN(CC(=O)Nc3ccc(F)c(F)c3)CC2)cc1`?
YjeE inh: inactive; PK Bst: >57

Results for COc1ccc(CNc2cc(-c3ccccc3CN(C)C)ncn2)c(OC)c1 ?
YjeE inh: inactive

Results for C1CN(c2nc3nonc3n3nnnc23)CCO1 ?
YjeE inh: inactive; PK Bst: >57

What do the screens show for `CCCCCSc1nc(C)c(CC(=O)O)c(=O)[nH]1`?
PK Bst: >26

What do the screens show for `OC(CNCC(c1ccco1)N1CCCCC1)c1ccccc1` (stereo not given)?
YjeE inh: inactive; PK Bst: >57

What do the screens show for `CNCCCCCCCCSc1nc(C(C)C)ccc1C(=O)c1cccs1`?
YjeE inh: inactive

What do the screens show for `Cn1c(=O)c2c(nc(CN3CCN(Cc4ccccc4)CC3)n2Cc2ccc(F)cc2)n(C)c1=O`?
YjeE inh: inactive

What do the screens show for `CN1CCc2cc(O)c(O)cc2[C@H](c2ccccc2)C1`?
YjeE inh: inactive

Results for Cc1ccc(OCC(=O)N(C)CCc2ccccn2)cc1 ?
PK Bst: >26

What do the screens show for `c1ccn(-c2ncnc3sc4c(c23)CCCC4)c1`?
YjeE inh: inactive; PK Bst: >57

What do the screens show for `Cc1noc(C)c1C(=O)OCC(=O)c1c(N)n(CC(C)C)c(=O)n(C)c1=O`?
YjeE inh: inactive; PK Bst: >57

How did O=C(Nc1ccon1)c1ccc(S(=O)(=O)N2CCCCCC2)cc1 do in these assays?
YjeE inh: inactive; PK Bst: >57

How did N#CC(C(=O)Nc1ccc(Cl)cc1)=C1Nc2ccccc2N1 do in these assays?
YjeE inh: inactive; PK Bst: >11

What do the screens show for `Cc1ccc(-n2nnc3c(=O)n(CC(=O)OCc4ccccc4)cnc32)cc1`?
YjeE inh: inactive

Results for Oc1ccc(-c2nnc(SCC3CCCCC3)o2)cc1 ?
YjeE inh: inactive; PK Bst: >57

Results for O=C(O)c1ccc(NS(=O)(=O)c2ccc3c(c2)OCCO3)cc1 ?
YjeE inh: inactive

Results for CCC1CCCCN1C(=O)Nc1cccc(NC(=O)N2CCCCC2CC)c1 (stereo not given) ?
YjeE inh: inactive; PK Bst: >57

What do the screens show for `Cc1csc(NC(=O)Nc2cccc(Cl)c2)n1`?
YjeE inh: inactive

Results for O=C1c2ccccc2-c2nccnc21 ?
YjeE inh: inactive

How did CN1CCN(c2ncnc3ccc(-c4cccc(C#N)c4)cc23)CC1 do in these assays?
YjeE inh: inactive

How did CC(C)[C@@H](CC(=O)N[C@@H]1CCNC[C@H]1C(=O)N[C@H](CC(=O)N[C@@H](CCC(=O)O)CC(=O)O)Cc1c[nH]c2ccccc12)NC(=O)C[C@H](CO)NC(=O)[C@@H]1CCCC[C@H]1N do in these assays?
YjeE inh: inactive

How did CCn1c(SCc2c(F)cccc2Cl)nnc1-c1ccco1 do in these assays?
YjeE inh: inactive; PK Bst: >57

Results for CCN(CC(=O)NCc1cccs1)S(=O)(=O)c1cccc(C(C)=O)c1 ?
YjeE inh: inactive; PK Bst: >57

What do the screens show for `O=C1C2(c3ccccc3)CN(CCCO)CC1(c1ccccc1)CN(CCCO)C2`?
YjeE inh: inactive; PK Bst: >57

What do the screens show for `Cn1c(SCc2nc3ccccc3[nH]2)nnc1-c1ccccn1`?
YjeE inh: inactive; PK Bst: >57

What do the screens show for `CN(Cc1ccccc1)Cc1nc2c(c(=O)n(C)c(=O)n2C)n1CCCc1ccccc1`?
YjeE inh: inactive; PK Bst: >57

How did Cc1ccccc1OCCn1c(=O)oc2ccccc21 do in these assays?
YjeE inh: inactive; PK Bst: >57

Results for O=C(CN(CC1CCCO1)C(=O)CCC(=O)Nc1nccs1)NCc1ccc2c(c1)OCO2 (stereo not given) ?
YjeE inh: inactive; PK Bst: >57

What do the screens show for `CN1Cc2sc(N)c(C#N)c2CC1(C)C`?
YjeE inh: inactive; PK Bst: >57

Results for CCCCNC(=O)CS(=O)Cc1nc(-c2cccs2)oc1C (stereo not given) ?
YjeE inh: inactive

How did Cc1nc2cnc(N3CCOCC3)nc2n(C2CC2)c1=O do in these assays?
YjeE inh: inactive

How did FC(F)Sc1nnc(-c2cccs2)n1-c1ccccc1 do in these assays?
YjeE inh: inactive; PK Bst: >57

Results for Cc1ccc(C)c(-n2c(SCC(=O)NCC3CCCO3)nnc2-c2ccoc2C)c1 (stereo not given) ?
YjeE inh: inactive; PK Bst: >57

How did CCOc1ccccc1N1CC(C(=O)Nc2nccs2)CC1=O (stereo not given) do in these assays?
YjeE inh: inactive; PK Bst: >57

Results for CCOc1cc(C)c(Cl)cc1S(=O)(=O)NCC1CCCO1 (stereo not given) ?
YjeE inh: inactive; PK Bst: >57

Results for COc1ccc(N2CCn3c2nc2c3c(=O)n(CCc3ccccc3)c(=O)n2C)c(OC)c1 ?
YjeE inh: inactive; PK Bst: >57

How did C=CCSc1nnc(NC(=O)CSc2nc3ccccc3o2)s1 do in these assays?
YjeE inh: inactive; PK Bst: >57

What do the screens show for `COc1ccc(CC(=O)Nc2nccs2)cc1OC`?
YjeE inh: inactive; PK Bst: >57

Results for CCOc1ccc(CCNC(=O)C2CCN(c3ccc(N4CCOCC4)nn3)CC2)cc1OCC ?
YjeE inh: inactive; PK Bst: >57

Results for CCCn1c(N)c(C(=O)CSc2nnc(-c3ccco3)n2Cc2ccccc2)c(=O)[nH]c1=O ?
YjeE inh: inactive; PK Bst: >57

How did Cc1nc2sc(C(c3ccco3)N3CCN(C(c4ccccc4)c4ccccc4)CC3)c(O)n2n1 (stereo not given) do in these assays?
YjeE inh: inactive

What do the screens show for `CCN(CC)CC[n+]1ccc2c(C)c3[nH]c4ccccc4c3c(C)c2c1`?
YjeE inh: inactive

Results for O=C(Nc1ccc2c(c1)OCCO2)c1ccc2nccnc2c1 ?
YjeE inh: inactive; PK Bst: inconclusive

Results for COC(=O)C1=C(C)Nc2ccc(C)cc2S1 ?
YjeE inh: inactive

How did Nn1cc(-c2ccccc2)nc1SCC(=O)N1CCN(S(=O)(=O)c2ccccc2)CC1 do in these assays?
YjeE inh: inactive; PK Bst: >57

Results for C[N+](C)(CCCOc1ccccc1)c1ccccc1 ?
YjeE inh: inactive

How did Cn1c(Cc2ccccc2)nnc1SCC(=O)N1CCOCC1 do in these assays?
YjeE inh: inactive; PK Bst: >57

Results for Cn1c(=O)[nH]c(=O)c2c1nc(CN1CCN(c3cccc(Cl)c3)CC1)n2CCCc1ccccc1 ?
YjeE inh: inactive

The last 2 entries of the section before lead into the next:
How did Cn1c(Cc2ccccc2)nnc1SCC(=O)N1CCOCC1 do in these assays?
YjeE inh: inactive; PK Bst: >57

Results for Cn1c(=O)[nH]c(=O)c2c1nc(CN1CCN(c3cccc(Cl)c3)CC1)n2CCCc1ccccc1 ?
YjeE inh: inactive

Results for CCOC(=O)N1CCN(C(=O)CCCN2C(=O)CSc3nc(C)cc(C)c32)CC1 ?
YjeE inh: inactive; PK Bst: >57

What do the screens show for `Cc1ccc(-c2nc3ccccc3n3nnnc23)cc1`?
YjeE inh: inactive; PK Bst: >57

How did CCCCN(C)C(=O)C1CCN(CCCc2ccccc2)CC1 do in these assays?
YjeE inh: inactive; PK Bst: >57

How did Cc1ccc(C)c(NC(=O)CSc2nnc(Cc3cccn3C)n2-c2ccc(F)cc2)c1 do in these assays?
YjeE inh: inactive

What do the screens show for `COc1ccc(OC)c(NC(=O)CSc2nnc(CNc3ccc(C)cc3C)o2)c1`?
YjeE inh: inactive; PK Bst: >57

How did CCOC(=O)C1=C(c2ccccc2)NC(SCC(=O)Nc2ccccc2C)=C(C#N)C1c1ccco1 (stereo not given) do in these assays?
PK Bst: >26

How did CSc1cccc(NC(=O)CN2C(=O)c3ccccc3S2(=O)=O)c1 do in these assays?
YjeE inh: inactive

What do the screens show for `Cc1occc1-c1nnc(SCC(=O)N2CCN(c3ccc(F)cc3)CC2)n1C`?
YjeE inh: inactive; PK Bst: >57

What do the screens show for `O=C(Cn1c(=O)n(Cc2ccco2)c(=O)c2ccccc21)Nc1cccc(Cl)c1`?
YjeE inh: inactive

What do the screens show for `O=C1CCC(=O)c2oc3ccccc3c2N1`?
YjeE inh: inactive; PK Bst: >57

How did Cc1ccc(C)n1CCN1CCN(C(=O)CSc2nc3ccccc3nc2N2CCOCC2)CC1 do in these assays?
YjeE inh: inactive; PK Bst: >57

Results for CC1=C(C(=O)Nc2ccccc2)C(c2ccncc2)C(C#N)=C(SCC(=O)NC2CC2)N1 (stereo not given) ?
YjeE inh: inactive; PK Bst: >57

What do the screens show for `CN(C)C(=O)CSc1nc(SCC(=O)N(C)C)n(-c2ccccc2)n1`?
YjeE inh: inactive; PK Bst: >57

How did O=C(CCn1nc(-c2ccc(Cl)cc2)ccc1=O)NCCCN1CCCCCC1 do in these assays?
YjeE inh: inactive; PK Bst: inconclusive

How did O=C(Cn1ncc2c(=O)oc3ccccc3c21)NCCCN1CCCC1=O do in these assays?
YjeE inh: inactive

How did O=c1c2ccccc2nc(-c2ccccc2)n1Cc1ccco1 do in these assays?
YjeE inh: inactive; PK Bst: >57

What do the screens show for `Cc1ccc2c(c1)[nH]c1c(N3CCN(Cc4ccccc4)CC3)ncnc12`?
YjeE inh: inactive; PK Bst: inconclusive

How did CCOC(=O)c1cnc2c(C#N)c(C)nn2c1-c1ccccc1 do in these assays?
YjeE inh: inactive

How did CC(C)CCN(C(=O)CNC(=O)c1ccco1)C(C(=O)NC1CCCCC1)c1ccco1 (stereo not given) do in these assays?
YjeE inh: inactive; PK Bst: >57

Results for COc1ccccc1-c1nnc(SCC(=O)N2CCC(C)CC2)o1 ?
YjeE inh: inactive; PK Bst: >57

Results for O=C1C2ON(c3ccccc3)C(c3cccnc3)C2C(=O)N1Cc1ccccc1 (stereo not given) ?
PK Bst: >26

What do the screens show for `O=S(=O)(c1ccccc1F)N(Cc1ccco1)Cc1nnc(-c2ccccc2Br)o1`?
YjeE inh: inactive

Results for O=C(CN1C(=O)C2C3C=CC(C3)C2C1=O)NCc1ccc2c(c1)OCO2 (stereo not given) ?
YjeE inh: inactive; PK Bst: >57

Results for CN(C)c1ccc(/C=C/C(O)=C2/C(=O)N(C)C3(C)CC2c2ccccc2O3)cc1 (stereo not given) ?
YjeE inh: inactive; PK Bst: >57

What do the screens show for `CC1(C)CC(=O)C2=C(C1)NC(=O)CC2c1ccc(F)cc1` (stereo not given)?
YjeE inh: inactive; PK Bst: >57

How did N#CC1=C2C=Cc3ccccc3N2CCCC1=O do in these assays?
YjeE inh: inactive

What do the screens show for `CCc1ccc(C(=O)N2CCN(c3ccc(F)cc3)CC2)s1`?
YjeE inh: inactive; PK Bst: >57

What do the screens show for `O=S(=O)(Nc1ccc2c(c1)OCCO2)c1ccc2oc3ccccc3c2c1`?
YjeE inh: inactive; PK Bst: >57

Results for Oc1ccc(-c2nc3ncccn3c2Nc2ccc3c(c2)OCO3)cc1 ?
YjeE inh: inactive

Results for COc1ccc(S(=O)(=O)N2CCC(C(N)=O)CC2)c2ccccc12 ?
YjeE inh: inactive; PK Bst: inconclusive

How did CCOCCCn1c(SCC(=O)Nc2ccc(C(N)=O)cc2)nc2ccccc2c1=O do in these assays?
YjeE inh: inactive; PK Bst: >57

How did O=C(NCCN1CCCCC1)c1c(O)c2ccccc2[nH]c1=O do in these assays?
YjeE inh: inactive; PK Bst: >57
